KCNQ2 enhance – KCNQ2 (rat) channel potentiation | CHO-K1 KCNQ2, FluxOR thallium flux fluorescence; hits give high values | actives 0.54% (n = 310,000) | B-score at 10 µM;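 active = fluorescence ratio B-score at least 3 SD of library B-scores, with initial fluorescence B-score within 3 SD, cut at about 5.3 in these data; same plate scores as AID 2156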;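 also: B-score of peak minus minimum over baseline fluorescence ratio after K+ and Tl+ stimulus; positive B-score means potentiation of KCNQ2 with more thallium influx and brighter signal; only the inactives scoring about 0 or higher are listed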
Target sequence (O88943 whole entry, looked up): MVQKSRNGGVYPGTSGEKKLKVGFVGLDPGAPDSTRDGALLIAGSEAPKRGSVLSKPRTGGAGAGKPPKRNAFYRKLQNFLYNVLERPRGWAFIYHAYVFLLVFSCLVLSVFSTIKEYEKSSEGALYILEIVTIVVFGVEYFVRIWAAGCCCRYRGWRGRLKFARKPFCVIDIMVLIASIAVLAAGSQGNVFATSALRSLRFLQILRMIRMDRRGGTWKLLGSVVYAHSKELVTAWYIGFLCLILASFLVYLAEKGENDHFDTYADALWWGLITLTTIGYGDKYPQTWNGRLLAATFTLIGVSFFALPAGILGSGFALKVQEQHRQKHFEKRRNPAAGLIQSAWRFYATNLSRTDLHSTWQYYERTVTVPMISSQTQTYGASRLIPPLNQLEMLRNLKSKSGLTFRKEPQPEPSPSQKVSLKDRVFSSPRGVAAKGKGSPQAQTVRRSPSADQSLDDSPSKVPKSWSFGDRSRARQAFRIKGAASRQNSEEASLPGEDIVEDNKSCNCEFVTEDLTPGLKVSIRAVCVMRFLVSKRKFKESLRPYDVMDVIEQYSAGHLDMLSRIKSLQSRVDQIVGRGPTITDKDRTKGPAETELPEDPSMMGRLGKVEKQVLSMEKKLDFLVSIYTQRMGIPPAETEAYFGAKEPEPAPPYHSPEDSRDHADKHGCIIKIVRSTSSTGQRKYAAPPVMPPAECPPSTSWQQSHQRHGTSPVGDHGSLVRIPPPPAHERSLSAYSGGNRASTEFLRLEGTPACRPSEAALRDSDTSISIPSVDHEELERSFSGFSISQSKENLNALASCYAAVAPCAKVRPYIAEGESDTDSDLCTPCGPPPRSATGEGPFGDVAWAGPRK
KCNQ2 enhance baseline – further read-out of KCNQ2 enhance, marked with its call; B-score; compound at 10 µM; measured here: initial fluorescence intensity artifact check;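 brightness before thallium and not channel activity; 0 = typical well and far values either way flag optical interference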
* = called active by the depositor. Some of the compounds tested; the hit share may differ from the screen's.

Fields – KCNQ2 enhance baseline, KCNQ2 enhance
O=C(COC(=O)C12CC3CC(CC(C3)C1)C2)NCc1ccco1
  -1.2, 0.28
Cc1ccc(/C=N/NC(=O)C(=O)N/N=C/c2ccc(C)o2)o1
  0.51, 1
CCCOc1ccc(N2C(=O)CC(N3CCC(O)(c4cccc(C(F)(F)F)c4)CC3)C2=O)cc1 (configuration not stated)
  -0.95, 1.1
C=CCn1c(O)c(N=NC(=S)Nc2ccc(OC)cc2)c2ccccc21
  0.98, 4
CC(C)CCOc1ccc(CO[C@@H]2[C@H]3OC(C)(C)O[C@H]3O[C@@H]2C(O)CO)cc1 (some centres not stated)
  -1.8, 0.34
COC(=O)c1ccccc1NC(=O)CC(NCc1ccccc1)C(=O)O (configuration not stated)
  -1, 0.83
COc1ccc(C(=O)NC(=S)Nc2cccc(NC(=O)c3ccco3)c2)cc1[N+](=O)[O-]
  -1.2, 1.7
O=C(NCc1cccnc1)C12CC3CC(CC(Cl)(C3)C1)C2
  0.95, 0.36
Cc1ccc(Cn2c(=N)c(C(=O)NC3CCCC3)cc3c(=O)n4ccccc4nc32)cc1
  -0.13, 1.9
Cc1cc2nc(C)c(Cc3ccccc3)c(=O)n2[nH]1
  -0.01, 0.31
Cc1ccsc1/C=N/NC(=O)C1C(=O)NCC1c1ccccc1 (configuration not stated)
  0.84, 0.1
CCC(C)n1c(SCC(=O)NC(=O)Nc2ccc3c(c2)OCCO3)nc2ccccc2c1=O (configuration not stated)
  -0.75, 1.5
NC(=O)N=Nc1c(O)n(Cc2ccccc2)c2ccc(Br)cc12
  0.26, 0.88
CCOC(=O)c1ccc(NC(=O)CSc2nnc(-c3ccncc3)n2C)cc1
  -2.5, 1.7
Cc1nn(S(=O)(=O)N(C)C)c(C)c1CN1C(=O)c2ccccc2C1=O
  -0.15, 0.03
O=C1CCC(C(=O)N2CCCC(N3CCN(c4cccc(C(F)(F)F)c4)CC3)C2)=NN1 (configuration not stated)
  -0.03, 0.07
CC(=O)Nc1ccc(N2CCC(C)CC2)c([N+](=O)[O-])c1
  0.22, 0.43
COCCNC(=O)/C(C#N)=C/c1c(N2CCN(c3ccccc3)CC2)nc2c(C)cccn2c1=O
  -0.58, 1.1
Cc1nc([N+](=O)[O-])c(NCCCO)n1Cc1ccccc1
  -0.08, 0.02
CC(C)C(NC(=O)C1CCC(C(C)(C)C)CC1)C(=O)NCCc1ccc(S(N)(=O)=O)cc1 (configuration not stated)
  0.01, 0.79

Following part.
Fields – KCNQ2 enhance baseline, KCNQ2 enhance
O=C(NC(Cc1ccccc1)C(=O)O)/C(=C/c1ccc(Cl)cc1)NC(=O)c1ccco1 (configuration not stated)
  0.37, 0.5
Cc1ccc(NC(=S)N(CCN2CCOCC2)Cc2ccccc2F)cc1Cl
  -0.59, 0.99
CCCN1C2=NCCCN2c2ccccc21
  -3.2, 2.5
CC(C)CC(=O)c1c[nH]c(C(=O)NCCc2ccccn2)c1
  -1.3, 0.09
O=C(CSc1ccc(C(F)(F)F)cn1)Nc1ccccc1
  1.9, 3.5
CC(Sc1nnc(N)s1)C(=O)Nc1ccc2c(c1)OCCO2 (configuration not stated)
  0.71, 1
COc1ccc2[nH]c(-c3ccc(C)cc3)cc(=O)c2c1
  0.83, 0.16
CCC(C(=O)OCC(=O)Nc1c(Cl)cc(Cl)cc1Cl)c1ccccc1 (configuration not stated)
  0.88, 4
O=C(CCCn1c(=S)[nH]c2cc3c(cc2c1=O)OCO3)N1CCN(c2ccccc2)CC1
  -3.5, 0.13
Cc1cc(C)c(NC(=O)CCCSc2nnc(N)s2)c(C)c1
  0.35, 2
CC(=O)Nc1ccc(C(=O)N2CCN(C(=O)c3ccco3)CC2)cc1
  -0.09, 1.2
O=C(O)c1cccc2cc(-c3ccccc3)oc(=O)c12
  1.7, 0.75
Cc1cc(C)c2nc(-n3nc(C)cc3N)cc(C)c2c1
  -0.46, 1
CCn1cc(CCC(=O)NCc2cccc(OC)c2OC)c2ccccc21
  1.8, 0.08
COC(C[C@@H](O)CC(=O)[C@H](C)OCc1ccccc1)OC
  0.66, 0.04
CN(C)c1cccc(-c2nnc(SCCCC#N)o2)c1
  2.8, 0.52
Cc1ccc(C2CC(C(F)(F)F)n3ncc(C(=O)NCc4ccco4)c3N2)cc1 (configuration not stated)
  -1.3, 0.14
O=C(C/C(=N\NC(=O)c1ccccc1Br)C(F)(F)F)c1cccs1
  -0.84, 1.6
COc1ccc(C(=O)NC2CCSc3ccccc32)cc1S(=O)(=O)N1CCOCC1 (configuration not stated)
  -0.07, 0.35
O=C(NCCc1ccccc1)Nc1ccc(Cl)cc1
  0.15, 0.45

Next section (two carried over from the part before).
Fields – KCNQ2 enhance baseline, KCNQ2 enhance
COc1ccc(C(=O)NC2CCSc3ccccc32)cc1S(=O)(=O)N1CCOCC1 (configuration not stated)
  -0.07, 0.35
O=C(NCCc1ccccc1)Nc1ccc(Cl)cc1
  0.15, 0.45
COc1ccc([N+](=O)[O-])cc1N(CC(=O)NCCSc1ccccc1)S(C)(=O)=O
  -1, 0.47
Cc1ccccc1NC(=S)N(Cc1ccco1)C(C)c1ccccn1 (configuration not stated)
  0.86, 0.23
Cc1nc(Nc2ccc(Cl)cc2)c(C#N)c(=O)[nH]1
  -0.53, 0.04
O=C(N[C@H](CO)Cc1ccccc1)c1ccco1
  -1.9, 0.29
COc1ccc(NC(=O)C2CCN(S(=O)(=O)c3ccc4c(c3)CC(C)N4C(C)=O)CC2)cc1OC (configuration not stated)
  0.07, 1.9
Cc1ccc(CNc2ncnc3cc(Cl)ccc23)o1
  -0.52, 1
O=C(NC1CCCCC1)c1cc(Cl)ccc1[N+](=O)[O-]
  -0.09, 0.59
COc1ccc(-c2noc(CN(C)C(=O)c3ccoc3C)n2)cc1
  1.6, 2.2
COC(=O)C(C)n1nnc2sc(-c3ccccc3)cc2c1=O (configuration not stated)
  1.1, 0.05
Cc1ccc(S(=O)(=O)Nc2cccc(C(=O)NCC3(N4CCCCC4)CCCCC3)c2)cc1F
  0.37, 1
O=c1nc(-c2ccccc2)c2cc(Cl)ccc2[nH]1
  0.86, 1.9
O=C(C1CCCO1)N1CCN(S(=O)(=O)c2ccccc2)CC1 (configuration not stated)
  -0.52, 0.52
CSc1n[nH]c2nc3c(c(=O)n12)C1(CCCCC1)Cc1ccccc1-3
  -0.8, 3
Cc1ccc(C2=NN(CC(=O)NCc3ccccn3)C(=O)CC2)cc1
  2.3, 1.5
Cc1ccc(C(=O)O)cc1NC(=O)CN1C(=O)C2C3c4ccccc4C(Br)(c4ccccc43)C2C1=O (configuration not stated)
  0.07, 0.01
CC(C)(C)C1=Nn2c(nnc2-c2ccccn2)SC1
  -1.1, 1.2
COc1cccc(CC(=O)OCC(=O)NC(Cc2ccccc2)C(C)=O)c1 (configuration not stated)
  0.01, 0.27
COc1cc(OC)cc(C(=O)NC(=S)NNC(=O)Cc2cccs2)c1
  0.29, 0.04
O=C(O)CNC(=O)c1ccc(S(=O)(=O)N2CCOCC2)cc1
  -0.96, 0.04
COc1ccc(-c2nc(SCc3ccccc3)n(S(C)(=O)=O)n2)cc1
  0.01, 0.04

Continuation:
Fields – KCNQ2 enhance baseline, KCNQ2 enhance
CCn1c(N2CCN(S(=O)(=O)c3ccccc3)CC2)nc2ccccc21
  0, 0.46
O=C(O)C1(NS(=O)(=O)c2ccc(Cl)cc2)CCCCC1
  -0.1, 1
COc1cc(Cl)ccc1OCc1cc(C(=O)N(C)C2CC(C)(C)NC(C)(C)C2)no1
  0.82, 0.74
CCc1c(C)nc(Nc2nc(C)c3ccc(OC)cc3n2)[nH]c1=O
  0.24, 1.3
CC(=O)N1CCN(CC(=O)Nc2cc(F)ccc2C)CC1
  -0.01, 0.04
Cc1nn(CC(=O)NCCN2CCCCC2C)c(=O)c2cc(-c3ccccc3)nn12 (configuration not stated)
  -0.99, 0.4
CCCn1cc(CN2CCCC(CNC(=O)c3ccc(F)cc3)C2)c(C)n1 (configuration not stated)
  1.4, 2
CCn1c(O)c(C2=c3ccccc3=NC2=O)c2cc(Br)ccc21
  -1.3, 0.39
CCCCn1c(SC(C)C(=O)NCC2CCCO2)nc2cc(C(=O)OC)ccc2c1=O (configuration not stated)
  0.74, 2.6
CCOc1cc(C(=O)Nc2ccc(NC(C)=O)cc2)ccc1OCC(=O)N1CCCCC1
  -0.18, 0.95
CN(C)N1C(N)=C(C#N)C(c2ccc(Cl)cc2)C2=C1CCCC2=O (configuration not stated)
  0, 0.22
c1csc(-c2nn3cnnc3c3ccccc23)c1
  0.55, 0.52
CC(C)CNC(=O)C(=O)NCCCN1CCOCC1
  0.69, 0.11
COc1ccc(-n2nnnc2SCC(=O)Nc2nnn(C)n2)cc1
  1.8, 0.05
O=C(NC(=S)N1CCCCC1c1cccnc1)c1ccccc1 (configuration not stated)
  0.79, 0.06
O=C1c2ccccc2C(Nc2ccc(F)cc2F)N1CCN1CCOCC1 (configuration not stated)
  1.2, 0.02
O=[N+]([O-])c1cccc(C2Nc3cccc4cccc(c34)N2)c1
  -0.18, 2
CN(C)CCCn1c(NCc2ccc3c(c2)OCO3)nc2ccccc21
  -0.37, 1.4
O=C(Nc1cccc2ccccc12)N1CCN(c2ccc(F)cc2)CC1
  -0.42, 0.07
Cc1ccc2cc(/C=N/NC(=O)c3ccc(F)cc3)c(Cl)nc2c1
  0.07, 1.3

Other structures follow:
Fields – KCNQ2 enhance baseline, KCNQ2 enhance
COC(=O)C1=C(C)N(Cc2ccc(OC)c(OC)c2)C(=O)C1
  -0.34, 2.7
N#CCSc1nc2ccccc2c(=O)n1CCCC(=O)NCc1ccco1
  -0.09, 0.21
Cc1cc(C)n2nc(C(=O)N/N=C/C=C/c3ccccc3)nc2n1
  -2.5, 0.43
COc1cc(CNCCCN2CCOCC2)c(Br)cc1OC(C)C
  -0.26, 0.28
CCCCn1c(N)c(N(CC(C)C)C(=O)c2cc(C)nc3ccccc23)c(=O)[nH]c1=O
  0.26, 0.02
COCCn1cnc2c1c(=O)[nH]c(=O)n2Cc1ccccc1
  1.5, 2.6
CCOc1ccc(-n2nc3ccc(NC(=O)c4ccc5c(c4)OCCO5)cc3n2)cc1
  0.58, 1.6
COc1ccc(CCNC(=O)c2cc3c(=O)n4cccc(C)c4nc3n(Cc3ccco3)c2=N)cc1OC
  -0.98, 1.3
Cc1c(C(=O)N2CC3(CC(c4cccc(NC(=O)[C@H]5CCC(=O)N5)c4)=NO3)C[C@@H]2C(N)=O)cc([N+](=O)[O-])cc1[N+](=O)[O-] (some centres not stated)
  0.94, 0.68
Cc1ccc(-n2nc3c(=O)n(C(C)C(=O)NCc4ccc(Cl)cc4)nc(C)c3c2C)cc1 (configuration not stated)
  0.62, 1.1
COc1ccc(OC)c(NC(=O)CSc2nnnn2-c2ccccc2F)c1
  -1.7, 0.98
CCOc1ccccc1NC(=O)C(NCCN(C)C)c1ccccc1 (configuration not stated)
  0.08, 1.8
O=C(NC(=S)N(CC1CCC1)CC1CCCO1)c1cccc([N+](=O)[O-])c1 (configuration not stated)
  0.17, 2.7
Cn1c(SCC#N)nnc1-c1ccc2c(c1)OCO2
  1, 0.94
O=S(=O)(NC1=NCCCCC1)c1ccc(F)cc1
  0.37, 0.85
C=CCSC1=NNC(c2ccc(C(C)(C)C)cc2)=NN1
  0, 0.85
COc1cc(C(=O)N2CCN(C(=O)c3ccco3)CC2)c([N+](=O)[O-])cc1OC
  -0.43, 1.3
CCc1cccc(C)c1NC(=O)CCCn1c(=O)c2cccn2c2cccnc21
  0.31, 0.92
COc1ccc(N2CCN(Cc3nnnn3C3CCCCC3)CC2)cc1
  -1.3, 1.7
CC(O)Cc1cn([C@@H](CCCCNC(=O)OC(C)(C)C)C(=O)N2CCN(C(=O)OC(C)(C)C)CC2)nn1 (some centres not stated)
  0.15, 0.7

4 entries from above, with each value named.
> COCCn1cnc2c1c(=O)[nH]c(=O)n2Cc1ccccc1
  KCNQ2 enhance baseline: 1.5 | KCNQ2 enhance: 2.6

> CCOc1ccc(-n2nc3ccc(NC(=O)c4ccc5c(c4)OCCO5)cc3n2)cc1
  KCNQ2 enhance baseline: 0.58 | KCNQ2 enhance: 1.6

> COc1ccc(CCNC(=O)c2cc3c(=O)n4cccc(C)c4nc3n(Cc3ccco3)c2=N)cc1OC
  KCNQ2 enhance baseline: -0.98 | KCNQ2 enhance: 1.3

> Cc1c(C(=O)N2CC3(CC(c4cccc(NC(=O)[C@H]5CCC(=O)N5)c4)=NO3)C[C@@H]2C(N)=O)cc([N+](=O)[O-])cc1[N+](=O)[O-] (some centres not stated)
  KCNQ2 enhance baseline: 0.94 | KCNQ2 enhance: 0.68

Later entries
Fields – KCNQ2 enhance baseline, KCNQ2 enhance
CC1=C[C@H](C)[C@H](c2c(F)cccc2Cl)CC1=O
  0.34, 0.86
CC(C)N1C(=O)CCC1C(=O)O (configuration not stated)
  -1.9, 2.6
Cn1c(CCNC(=O)C(C)(C)C)nc2ccccc21
  -2, 0.08
O=C(Nc1cccc(C(F)(F)F)c1)c1cnccn1
  0.76, 1.1
CC1(C(=O)NC2CCCC2)CCC(=O)N1Cc1cccs1 (configuration not stated)
  -1.5, 0.11
CCOC(=O)NNc1ccccc1
  0.67, 1.1
CCn1c(=NC(=O)c2ccc(N3C(=O)CCC3=O)cc2)sc2c(OC)ccc(OC)c21
  -0.63, 0.21
COc1cc(CNc2ccc(O)cc2)cc(Br)c1OCc1ccccc1
  0.36, 0.46
CCOC(=O)NN1C(=O)c2ccccc2NC1c1ccccc1O (configuration not stated)
  0.17, 1.5
CCOC(=O)N1CCN(Cc2nc(CC3CC3)no2)CC1
  0.62, 0.34
CN(c1ccc(C(=O)NCCSCc2ccco2)cc1)S(C)(=O)=O
  0.39, 1.5
COC(=O)CCN1CCc2cc(N=Nc3ccc([N+](=O)[O-])cc3)ccc21
  0.29, 1

Assay outcomes deposited in PubChem BioAssay by Johns Hopkins Ion Channel Center.
